Compound activity (PubChem)
Vaccinia Venus: vaccinia inhibition (Venus reporter). Vaccinia virus Venus reporter expression, fluorescence. Potency, µM (top dose mostly 36.5 µM), for inactives: at the top dose activity change, negative = inhibition, actives largely listed as inhibitors. 330,000 tested, 0.46% active; active means well fitted inhibition curve with a large enough effect; inconclusive means small, poorly fitted or top-dose-only effect; inactive means no such curve, though single readings can be large or run the other way; tested in A549 cells; note: nearly all actives have a fitted effect of over 30% in size; inactives centre near -10
VACV mCherry inh: vaccinia inhibition (mCherry reporter). Potency, µM (series often up to 36.5 µM), without a hit: at the top dose activity change, negative = inhibition, hits mostly inhibitors. Vaccinia virus mCherry reporter infection, fluorescence; about a quarter of the inactives have no number. 310,000 tested, 0.63% active; active = well fitted inhibition curve with a large enough effect; inconclusive = small, poorly fitted or top-dose-only effect; inactive = no such curve, though single readings can be large or run the other way; tested in A549 cells; note: nearly all actives have a fitted effect of over 35% in size; inactives centre near -10
The depositor's hits bear a star; [ ] = another dose, or the depositor's remark. % is set by controls: 0 for no effect and ±100 for the full control effect; potency is the fitted concentration of half-maximal effect.

How did CN(C)S(=O)(=O)c1ccc(S(=O)(=O)NCc2ccc3c(c2)OCO3)cc1 do in these assays?
Vaccinia Venus: -18.2%; VACV mCherry inh: inactive

What do the screens show for `O=C1CCC(C(=O)OCC(=O)c2c[nH]c3ccccc23)=NN1`?
Vaccinia Venus: -10.7%; VACV mCherry inh: -8.4%

What do the screens show for `Cc1ccc(-c2nc(NCc3ccc(F)cc3)n(S(C)(=O)=O)n2)cc1`?
Vaccinia Venus: -3.8%; VACV mCherry inh: -12.4%

How did COc1ccc(-n2c(SCC(N)=O)nc3nc4c(cc3c2=O)COC(C)(C)C4)cc1 do in these assays?
Vaccinia Venus: 0.0%; VACV mCherry inh: inactive

Results for COc1ccc(NC(=O)CN2CCN(C3c4ccccc4-c4ccccc43)CC2)c(OC)c1 ?
Vaccinia Venus: -8.9%

How did COc1ccc(C(=O)Nc2nnc(S(=O)(=O)N(C)Cc3ccc(F)cc3)s2)cc1OC do in these assays?
Vaccinia Venus: -10.8%; VACV mCherry inh: -28.4%

What do the screens show for `COc1ccc(Nc2nc(-c3cccnc3)cs2)c(OC)c1`?
Vaccinia Venus: -20.9%; VACV mCherry inh: inactive

Results for CN(C)C(=O)CSc1nnc(C23CC4CC(CC(C4)C2)C3)o1 ?
Vaccinia Venus: -23.5%; VACV mCherry inh: -11.3%

How did Cc1cc(NC(=O)CSc2cn(CCNC(=O)c3ccccc3)c3ccccc23)no1 do in these assays?
Vaccinia Venus: -18.5%; VACV mCherry inh: inactive

How did O=c1[nH]cnc(O)c1N=Nc1ccccc1 do in these assays?
Vaccinia Venus: -21.7%; VACV mCherry inh: inactive

What do the screens show for `COc1ccc(Br)cc1-c1nc2c(c(=O)[nH]c(=O)n2Cc2ccccc2)n1C`?
Vaccinia Venus: -4.1%; VACV mCherry inh: -21.7%

Results for Cc1ccc(OCC(=O)OCc2cc(=O)n3c(C)csc3n2)cc1 ?
Vaccinia Venus: -7.0%; VACV mCherry inh: -16.3%

What do the screens show for `O=C(N1CCOCC1)C12CC3CC(C1)CC(n1cnc(Cl)n1)(C3)C2`?
Vaccinia Venus: -13.3%; VACV mCherry inh: -12.8%

Results for CCN(C[C@H]1N[C@@](Cc2ccccc2)(C(=O)OC)[C@H]2C(=O)N(Cc3ccccc3)C(=O)[C@@H]12)C(=O)c1ccc(C)cc1 ?
Vaccinia Venus: inconclusive; VACV mCherry inh: inconclusive

Results for CCN1C(=O)c2ccccc2S(=O)(=O)c2ccc(C(=O)NCCCN(CC(C)C)CC(C)C)cc21 ?
Vaccinia Venus: -17.9%; VACV mCherry inh: -24.4%

Results for COc1ccc(C(C)=O)cc1CSCc1cc(C(C)=O)ccc1OC ?
Vaccinia Venus: -13.9%; VACV mCherry inh: -15.1%

What do the screens show for `Cc1ccc(Cl)cc1NC(=O)C(Cc1ccccc1)NS(=O)(=O)c1cccc2nsnc12` (stereo not given)?
Vaccinia Venus: -16.3%; VACV mCherry inh: -9.1%

What do the screens show for `O[C@@H]1C[C@H](c2ccccc2)N(CC2CCCCC2)C[C@H]1n1cc(C2CC2)nn1`?
Vaccinia Venus: -11.4%; VACV mCherry inh: -14.8%

Results for O=C(CCl)Nc1c[nH]c(=O)[nH]c1=O ?
Vaccinia Venus: 7.94µM*; VACV mCherry inh: 7.08µM*

What do the screens show for `CCN(CCn1cccn1)C(=O)CC1C(=O)NCCN1CC1CCCCC1` (stereo not given)?
Vaccinia Venus: -5.7%; VACV mCherry inh: -9.7%

What do the screens show for `CN(C)S(=O)(=O)N1CCN(C(=O)c2ccc3c(c2)OCO3)CC1`?
Vaccinia Venus: -6.2%; VACV mCherry inh: -18.2%

Results for Cc1ccc(OCC(=O)N2CCC(N3CCCCCC3)CC2)cc1 ?
Vaccinia Venus: -8.9%; VACV mCherry inh: -9.0%

What do the screens show for `CCCCOCCCN1C(C)=CC(=C2C(=O)NC(=S)NC2=O)C=C1C`?
Vaccinia Venus: 12.8%[7.34 µM]; VACV mCherry inh: 21.7%[7.34 µM]

What do the screens show for `CC(C)c1ccc(-c2nc(N3CCCCC3)[nH]c(=O)c2C#N)cc1`?
Vaccinia Venus: -7.9%; VACV mCherry inh: -10.0%

Results for CCOc1ccc(N(Cc2ccccc2)C(=O)c2nc(SCC)ncc2Cl)cc1 ?
Vaccinia Venus: -18.2%; VACV mCherry inh: -16.4%

Results for CC(=O)c1ccc(S(=O)(=O)N2Cc3ccccc3CC2C(=O)O)cc1 (stereo not given) ?
Vaccinia Venus: 0.8%; VACV mCherry inh: -1.5%

How did COc1ccc(C(=O)NCC(c2cccnc2)N2CCN(c3ccccc3)CC2)cc1 (stereo not given) do in these assays?
Vaccinia Venus: -16.2%; VACV mCherry inh: -8.3%

How did COc1cc(C(=O)OCc2cc(=O)c(O)co2)ccc1OC(F)F do in these assays?
Vaccinia Venus: -3.4%; VACV mCherry inh: inconclusive

What do the screens show for `COc1cccc(-c2cnc(C(O)c3ccc(C)c(F)c3)[nH]2)c1` (stereo not given)?
Vaccinia Venus: -0.9%; VACV mCherry inh: 20.8%

Results for COC(=O)C1=C(c2ccc(Cl)c(C(F)(F)F)c2)C[C@@H]2CC[C@H]1N2C(=O)NCc1ccco1 ?
Vaccinia Venus: -29.6%; VACV mCherry inh: -13.1%

Results for O=C(O)C1CC2CCC1CC2 (stereo not given) ?
Vaccinia Venus: 2.7%; VACV mCherry inh: -8.4%

Results for Cc1ccc(S(=O)(=O)N2CCCC(C(=O)NCc3ccc4c(c3)OCO4)C2)cc1 (stereo not given) ?
Vaccinia Venus: -5.9%; VACV mCherry inh: inactive

Results for COc1ccc(NC(=O)CSc2nc(-c3cccs3)cc(C(F)(F)F)n2)cc1Cl ?
Vaccinia Venus: inconclusive; VACV mCherry inh: inconclusive

How did NC(CP(=O)(O)O)C(=O)O (stereo not given) do in these assays?
Vaccinia Venus: -9.6%; VACV mCherry inh: -16.6%

Results for CC(=O)Nc1cccc(NC(=O)CSc2ncc(-c3ccccc3)[nH]2)c1 ?
Vaccinia Venus: -14.0%; VACV mCherry inh: -0.6%

What do the screens show for `O=C(c1ccc(C(F)(F)F)cc1)N1CCC(=O)N([C@H](COCc2ccc(C(F)(F)F)cc2)Cc2ccccc2)CC1`?
Vaccinia Venus: -12.8%; VACV mCherry inh: -16.1%

Results for CCOC(=O)C1=C(COc2ccccc2)NC(=O)NC1c1ccc(Br)cc1 (stereo not given) ?
Vaccinia Venus: inconclusive; VACV mCherry inh: inactive

Results for Cc1ccc2oc3c(c(=O)c2c1)C(c1ccc(O)cc1)N(Cc1ccc2c(c1)OCO2)C3=O (stereo not given) ?
Vaccinia Venus: inconclusive; VACV mCherry inh: inconclusive

Results for CN(C)Cc1ccccc1Sc1ccc(Br)cc1 ?
Vaccinia Venus: -10.6%; VACV mCherry inh: -4.8%

How did N#C/C(=C1\CCCN1)c1ccc2ccccc2n1 do in these assays?
Vaccinia Venus: -13.2%; VACV mCherry inh: inactive

What do the screens show for `Cc1ccccc1NC(=O)CSc1nnc(-c2ccccc2)n1-c1ccccc1`?
Vaccinia Venus: -27.0%

What do the screens show for `Cc1cccc(OCC(=O)Nc2cc(C)c(O)c(-c3nc4ccccc4o3)c2)c1`?
Vaccinia Venus: -21.7%; VACV mCherry inh: inconclusive

How did Cc1ccccc1NC(=O)COC(=O)c1c(C)nn(-c2ccccc2)c1C do in these assays?
Vaccinia Venus: -25.8%; VACV mCherry inh: -3.2%

What do the screens show for `O=C(NNC(=O)c1cccc2ccccc12)c1ccc(-c2ccccc2)cc1`?
Vaccinia Venus: -18.7%; VACV mCherry inh: -21.8%

How did CC(=O)NS(=O)(=O)c1ccc(NC(=O)c2cccc(S(=O)(=O)N3CCc4ccccc43)c2)cc1 do in these assays?
Vaccinia Venus: -9.1%; VACV mCherry inh: -16.4%

How did CNc1nnc(Sc2ncccc2[N+](=O)[O-])s1 do in these assays?
Vaccinia Venus: -11.0%; VACV mCherry inh: -15.7%

What do the screens show for `COC(=O)c1c(NC(=O)CN2CCN(c3ccccc3)CC2)c2c(C)cccc2n1C`?
Vaccinia Venus: inconclusive

What do the screens show for `Cc1ccc(OCC(=O)Nc2ccc3oc(=O)ccc3c2)cc1`?
Vaccinia Venus: -12.3%; VACV mCherry inh: -0.9%

What do the screens show for `O=S(=O)(Nc1cccc(-c2ccc(N3CCCC3)nn2)c1)c1ccc(F)c(C(F)(F)F)c1`?
Vaccinia Venus: -14.1%; VACV mCherry inh: -3.9%

What do the screens show for `Brc1cccc(-c2nnc(CN3CCN(c4ccccn4)CC3)o2)c1`?
Vaccinia Venus: -0.9%; VACV mCherry inh: 0.5%

Structures listed so far containing a Cl atom:
What do the screens show for `O=C(N1CCOCC1)C12CC3CC(C1)CC(n1cnc(Cl)n1)(C3)C2`?
Vaccinia Venus: -13.3%; VACV mCherry inh: -12.8%

What do the screens show for `Cc1ccc(Cl)cc1NC(=O)C(Cc1ccccc1)NS(=O)(=O)c1cccc2nsnc12` (stereo not given)?
Vaccinia Venus: -16.3%; VACV mCherry inh: -9.1%

Results for O=C(CCl)Nc1c[nH]c(=O)[nH]c1=O ?
Vaccinia Venus: 7.94µM*; VACV mCherry inh: 7.08µM*

Results for CCOc1ccc(N(Cc2ccccc2)C(=O)c2nc(SCC)ncc2Cl)cc1 ?
Vaccinia Venus: -18.2%; VACV mCherry inh: -16.4%

Results for COC(=O)C1=C(c2ccc(Cl)c(C(F)(F)F)c2)C[C@@H]2CC[C@H]1N2C(=O)NCc1ccco1 ?
Vaccinia Venus: -29.6%; VACV mCherry inh: -13.1%

Results for COc1ccc(NC(=O)CSc2nc(-c3cccs3)cc(C(F)(F)F)n2)cc1Cl ?
Vaccinia Venus: inconclusive; VACV mCherry inh: inconclusive

(continued)
How did Cc1ccc(/C(O)=C2\C(=O)C(=O)N(CCCN3CCOCC3)C2c2ccccc2F)cc1 (stereo not given) do in these assays?
Vaccinia Venus: -5.7%; VACV mCherry inh: inactive

Results for CCOC(=O)Cc1csc(NC(=O)CSc2nc(=O)[nH]c3c2CCC3)n1 ?
Vaccinia Venus: -10.4%; VACV mCherry inh: inactive

What do the screens show for `N#CCCN(C(=O)COC(=O)c1cc(=O)[nH]c2ccccc12)c1ccccc1`?
Vaccinia Venus: -10.4%; VACV mCherry inh: inactive

How did Cc1ccc(S(=O)(=O)N2C[C@@H]3[C@H]4CC[C@H](C4)[C@@H]3[C@@H](C)[C@H]2C#N)cc1 do in these assays?
Vaccinia Venus: -17.1%; VACV mCherry inh: inactive

How did COc1cccc(N2CCN(S(=O)(=O)c3ccc(-c4cnc(C5CC5)o4)cc3)CC2)c1 do in these assays?
Vaccinia Venus: -12.0%; VACV mCherry inh: -18.2%

What do the screens show for `CC(OC(=O)c1cc2sccc2n1C)C(=O)NCc1ccc2c(c1)OCO2` (stereo not given)?
Vaccinia Venus: -4.3%; VACV mCherry inh: inactive

Results for CCCn1c2ccccc2c2nnc(SCC(=O)Nc3cc(C)on3)nc21 ?
Vaccinia Venus: 10µM*

Results for C#CCOCCOCCOCCNc1nc(N2CCOCC2)nc(N2CCN(C(=O)CCCCCCCCCCNC(=O)Cn3cc(CCCCCN)nn3)CC2)n1 ?
Vaccinia Venus: -20.7%; VACV mCherry inh: inactive

Results for COc1ccc(C(=O)C2CCN(C(=O)Nc3ccccc3C)CC2)cc1 ?
Vaccinia Venus: -18.3%; VACV mCherry inh: -18.4%

What do the screens show for `Cc1cc(C)c2c(CC(=O)Nc3ccc(F)cc3)coc2c1`?
Vaccinia Venus: -16.9%; VACV mCherry inh: -11.7%

Results for O=C(Nc1ccccc1)c1cc(S(=O)(=O)N2CCSCC2)ccc1Cl ?
Vaccinia Venus: -11.5%; VACV mCherry inh: -20.8%

What do the screens show for `CC1(C)CC(=O)c2sc(NC(=O)CN3C(=O)CCC3=O)nc2C1`?
Vaccinia Venus: -14.3%; VACV mCherry inh: inactive

Results for N#C/C(=C/c1ccc(N2CCCCC2)o1)C(=O)Nc1ccc2ccccc2c1 ?
Vaccinia Venus: 105.4%[activator]; VACV mCherry inh: -27.3%

How did CC1=C(C(=O)Nc2ccccc2)SCCO1 do in these assays?
Vaccinia Venus: -8.6%; VACV mCherry inh: inactive

How did O=C1/C(=C/c2ccco2)N=C(N2CCCCC2)N1c1ccccc1 do in these assays?
Vaccinia Venus: 2.5%; VACV mCherry inh: -13.9%

Results for C=CCn1c(C)cc(C2=NNC(=NC(C)(C)C)SC2)c1C ?
Vaccinia Venus: -24.7%; VACV mCherry inh: -18.4%

How did O=C(COC(=O)c1cc(Br)c(Br)s1)NCCC1=CCCCC1 do in these assays?
Vaccinia Venus: -3.1%; VACV mCherry inh: -17.7%

Results for CCOC(=O)C(Cc1ccccc1)C(=O)Nc1nccs1 (stereo not given) ?
Vaccinia Venus: -19.3%; VACV mCherry inh: inactive

What do the screens show for `Cn1c(NC(=O)c2ccccc2F)cc(=O)n(C)c1=O`?
Vaccinia Venus: -6.4%; VACV mCherry inh: -13.0%

What do the screens show for `Cc1nc2ccc(S(=O)(=O)CCC(=O)Nc3ccc(Cl)cc3)cc2s1`?
Vaccinia Venus: -17.3%; VACV mCherry inh: -19.1%

What do the screens show for `O=C(Nn1cc(C(=O)N2CCN(c3ccccc3F)CC2)c2ccccc2c1=O)c1cnccn1`?
Vaccinia Venus: -20.0%; VACV mCherry inh: -6.7%

How did O=C(CCc1nnc2n(Cc3ccccc3)c(=O)c3ccccc3n12)NCCN1CCOCC1 do in these assays?
Vaccinia Venus: -8.2%; VACV mCherry inh: -9.3%

Results for CNC(=O)C1CC(=O)N(c2ccc(F)c(Cl)c2)C1 (stereo not given) ?
Vaccinia Venus: -3.5%; VACV mCherry inh: -8.8%

Results for COC(=O)/C(=N\Nc1ccc(Cl)cc1)Sc1nnc(-c2ccc(OC)cc2)n1C ?
Vaccinia Venus: -7.7%; VACV mCherry inh: -4.4%

What do the screens show for `CCOC(=O)c1cnc2ccc(Br)cc2c1NCCN1CCOCC1`?
Vaccinia Venus: 0.5%; VACV mCherry inh: -5.7%
